Assay outcomes from PubChem BioAssay.
Mtb H37Rv: Mycobacterium tuberculosis H37Rv growth inhibition, cell based, confirmatory dose response (AID 1949); M. tuberculosis H37Rv growth inhibition; most inactive calls were filed without a number and no value below 0 was filed; inhibition, % at 10 µg/mL, or IC50 in µg/mL where a hit was titrated; actives 1.6% (n = 100,000);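 active = confirmed in a dose series; inconclusive = about 50% or more but not retested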;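 also: bacteria grown 7 days with compound before Alamar blue readout; 0% = untreated bacteria and 100% = reference antibiotic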
Active calls of the source: *; i = inactive; u = inconclusive.

SMILES	Mtb H37Rv
COC(=O)C1=C(C(=O)OC)SC(=C2C(=S)C(C)(C)N3C(=O)C(=O)c4cc(C)cc2c43)S1	i
Cc1oc2ccc(OC(=O)N3CCOCC3)cc2c1C(=O)OC(C)C	3%
CCN1C(=O)NC(c2ccc(Cl)cc2)C(C(=O)OC)=C1C (stereo not given)	i
COC(=O)CN(c1cc([N+](=O)[O-])ccc1C)S(C)(=O)=O	2%
COc1ccc(C(C)NC(=S)NCc2ccc(C)cc2)cc1 (stereo not given)	i
CS(=O)(=O)N(CC(=O)NC1CCCCC1)c1ccccc1Br	i
CCCCC(CC)C(=O)Nc1nnc(C(F)(F)F)s1 (stereo not given)	i
Cc1ccc(S(=O)(=O)c2ccc(Cl)cc2)cc1S(=O)(=O)Nc1ccccn1	i
Cn1ccc(NC(=O)Nc2ccc(F)c(Cl)c2)n1	i
CCOC(=O)c1sc(NC(=O)c2cc(Cl)c(OC)c(Cl)c2)c(C(=O)OCC)c1C	i
Cn1c(=O)c2c(-c3ccccc3)n3c4ccccc4ncc3c2n(C)c1=O	i
COc1cccc(C2=NN(C(=O)c3onc(-c4ccccc4Cl)c3C)C(c3ccco3)C2)c1 (stereo not given)	3%
CCCCOC(=O)Nc1sc2c(c1C(N)=O)CCC(C)C2 (stereo not given)	i
COc1ccc(Cl)cc1NC(=S)Nc1ccc(C)cc1Br	i
N#Cc1cc2c(nc1S(=O)(=O)Cc1ccccc1)CCCC2	i
CC(C)(C)c1nc(S(=O)(=O)c2ccc(Cl)cc2)c(NCc2ccccc2)o1	2%
Cc1ccccc1CN(CC(=O)NC(C)c1ccccc1)S(=O)(=O)c1ccc(Cl)cc1 (stereo not given)	1%
COc1cc(C=O)ccc1OCC(=O)Nc1cccc(SC)c1	i
O=C1CC(c2cccc([N+](=O)[O-])c2)Sc2nc(-c3ccc(F)cc3)nn21 (stereo not given)	1%
O=C(Nc1scc2c1c(=O)oc1ccccc12)C1CCCO1 (stereo not given)	i
CC(C)(C)NCCOCCOc1ccccc1Cl	i
CCc1ccccc1N(CC(=O)Nc1ccccc1C(=O)NCc1ccco1)S(C)(=O)=O	i
COc1ccc(Cl)cc1C(=O)Nc1ccccc1Br	i
COc1ccc(C(=O)Nc2sc(C)c(C)c2C(N)=O)cc1	i
COc1cccc(C(=O)NCCSCc2c(F)cccc2Cl)c1	i
O=S(=O)(c1ccc2c(c1)OCCO2)N(Cc1ccccc1)Cc1ccccc1	i
COc1ccc(NC(=O)CN(c2cc(Cl)ccc2Cl)S(C)(=O)=O)c(OC)c1	0%
CCn1c(COc2cccc3cccnc23)nnc1SCc1ccccc1	i
COc1ccccc1NC(=O)CSCc1ccc([N+](=O)[O-])cc1	i
Fc1ccc(CSc2nncn2NCc2ccc3c(c2)OCO3)cc1	i
COCCNCCCOc1c(C)cccc1C(C)(C)C	i
COCCNC(=O)Cc1cccc2ccccc12	i
Cc1cccc(OCC(=O)Nc2ccccc2C(N)=O)c1C	4%
Cc1ccc(C)c(NC(=O)COc2ccc(Br)cc2C=O)c1	i
Cc1cc(C)cc(OCC(O)CNC(C)c2ccccc2)c1 (stereo not given)	39%
Cc1ccc2c(c1)NC(c1cccc(Br)c1)C1=C(CC(C)(C)CC1=O)N2 (stereo not given)	i
CC(C)(C)NCCCCOc1ccc(F)cc1	i
Cc1cc(C)cc(NC(=O)COc2ccc3c(c2)CCCC3)c1	i
NC(=NCc1ccc2c(c1)OCO2)NC(=O)c1ccccc1	6%
CCc1ccc(CCC(=O)Nc2ncc(Cc3cccc(C(F)(F)F)c3)s2)o1	2%
COc1ccc(CC(=O)Nc2ccc(C)c([N+](=O)[O-])c2)cc1	i
COc1ccc(C(=O)Nc2ccccc2NC(=O)c2ccc(OC)cc2OC)c(OC)c1	i
Cc1cc(C)c(S(=O)(=O)NCC(=O)NC2CC2)c(C)c1	i
COc1ccc(S(=O)(=O)NCc2ccccn2)c(C)c1C	i
NS(=O)(=O)c1ccc(NC(=O)c2ccc(NC(=O)C3COc4ccccc4O3)cc2)cc1 (stereo not given)	3%
Cc1cc2nnc(SCC(=O)Nc3sc4c(c3C#N)CCC4)n2c2ccccc12	i
COC(=O)C1=CN(Cc2ccc(F)cc2)C=C(C(=O)OC)C1c1cc(Cl)c(O)c(OC)c1	1%
Cc1cccc(N2C(=O)CC(n3c(C)nc4ccccc43)C2=O)c1 (stereo not given)	i
CCc1[nH]nc2c1C(c1ccc(C(=O)OC)cc1)C(C#N)=C(N)O2 (stereo not given)	3%
CCOC(=O)c1cc(Cc2ccccc2)sc1NC(=S)N1CCN(C(=O)C2CCCO2)CC1 (stereo not given)	39%

Further results follow:
SMILES	Mtb H37Rv
Cc1c(C(=O)c2ccccc2)sc2nc(-c3ccccc3)nc(N)c12	7.8µg/mL*
O=C(CCNc1ccc(F)c(Cl)c1)c1cccs1	4.3µg/mL*
CN1C(CC(O)c2ccccc2)CCCC1C(=O)c1ccccc1 (stereo not given)	i
CC(C)OC(=O)CSc1nnc(-c2cnccn2)n1C	i
O=C(Nc1ccccc1)c1ccc(SC2CCCCC2)c([N+](=O)[O-])c1	i
CCC(Oc1ccccc1)C(=O)Nc1nnc(C)s1 (stereo not given)	i
COc1ccc(N(CC(=O)NCCC2=CCCCC2)S(=O)(=O)c2ccccc2)cc1OC	i
COC(=O)c1cccc(Nc2nnc(C)c(=O)[nH]2)c1	i
Cc1ccc(C(=O)NCc2ccccc2Cl)c(C)c1	i
O=C(COc1ccc(Cl)cc1Cl)NS(=O)(=O)c1ccccc1	i
O=c1cc(-c2ccccc2)nc(SCc2nc3ccccc3[nH]2)[nH]1	i
COc1cc(C(=O)NC(=S)Nc2ccc(C(F)(F)F)cc2Cl)cc(OC)c1OC	i
C=CCn1c(SCC(=O)Nc2cc(F)ccc2C)nnc1-c1cccc(C)c1	i
CN(c1ccccc1)C1CCCCC1NS(=O)(=O)c1ccc(Cl)cc1 (stereo not given)	14%
Cc1cccc(NC(=O)c2cccc(NC(=O)C(c3ccccc3)c3ccccc3)c2)c1	i
COCCNC(=O)c1ccccc1NC(=O)C(C)N(c1ccc(OC)cc1)S(C)(=O)=O (stereo not given)	i
Cc1ccc(NS(=O)(=O)N2CCCCC2)cc1Cl	6%
COc1cccc(NC(=O)C2Cc3ccccc3C(=O)O2)c1 (stereo not given)	i
CSc1cccc(NC(=O)CSCc2c(Cl)cccc2Cl)c1	i
Nc1ncnc(Sc2nc3ccccc3s2)c1[N+](=O)[O-]	0.5µg/mL*
Cc1ccc(OC(C)C(=O)Nc2ccccc2Cl)cc1C (stereo not given)	i
COc1cc(NC(=S)NN2CCN(C)CC2)c(OC)cc1Cl	2%
COc1ccc(S(=O)(=O)N2CCC(C(=O)N(C)Cc3ccccc3)CC2)cc1Cl	4%
Cc1ccc(SC(C)C(=O)Nc2ccc(S(=O)(=O)N3CCCCCC3)cc2)cc1 (stereo not given)	0%
C=CCn1c(SCC(=O)c2ccc(F)cc2)nc2sc(C)c(C)c2c1=O	1%
COc1ccc(CCn2c3c(c(=O)[nH]c2=O)C(NC(=O)C(C)(C)C)(C(F)(F)F)C(=O)N3)cc1OC (stereo not given)	i
O=C(Nc1ccc(Cl)c(Cl)c1)N1CC=C(c2ccccc2)CC1	u
CCOC(=O)c1cc(NC(=O)Nc2ccccc2Cl)c(C)nc1C	i
CCOc1ccccc1NC(=O)c1ccc(NC(=O)c2ccco2)cc1	6%
Cc1cc(C(=O)CSc2nnnn2-c2ccccc2)c(C)n1Cc1ccccc1	i

Molecules listed so far that have a CF3 group, in the order listed:
SMILES	Mtb H37Rv
CCCCC(CC)C(=O)Nc1nnc(C(F)(F)F)s1 (stereo not given)	i
CCc1ccc(CCC(=O)Nc2ncc(Cc3cccc(C(F)(F)F)c3)s2)o1	2%
COc1cc(C(=O)NC(=S)Nc2ccc(C(F)(F)F)cc2Cl)cc(OC)c1OC	i
COc1ccc(CCn2c3c(c(=O)[nH]c2=O)C(NC(=O)C(C)(C)C)(C(F)(F)F)C(=O)N3)cc1OC (stereo not given)	i

Next section
SMILES	Mtb H37Rv
Cc1c(F)cccc1NS(=O)(=O)c1ccccc1C#N	i
Cc1cc(C)nc(N/C(=N/S(=O)(=O)Cc2ccccc2)Nc2ccccc2)n1	i
CCC(C)c1ccc(NC(=O)CC(C)c2ccccc2)cc1 (stereo not given)	18%
Cc1sc2ncnc(NC(CC(C)C)C(=O)O)c2c1C (stereo not given)	i
CCOC(=O)c1ccc(NC(=O)CSc2nnc(-c3ccc(OC)cc3)n2CC)cc1	i
CC1(C)Cc2c(sc3nc(SCC(=O)c4ccccc4)nc(N)c23)CS1	i
c1ccc(CSc2nnc(Cc3ccccc3)o2)cc1	14%
Cc1ccccc1CN(c1ccc(C(=O)NC(C)(C)C)cc1)S(C)(=O)=O	i
CC(C)(C)NC(=O)c1ccccc1NC(=O)c1cccs1	i
O=S(=O)(c1ccccc1)N1CCN(S(=O)(=O)c2ccc3ccccc3c2)CC1	i
CCOC(=O)C(=O)N1CCN(c2ccccc2OC)CC1	i
CCOc1cc(C(=O)Nc2c(C(C)C)cccc2C(C)C)cc(OCC)c1OCC	i
CC1CCCN(CCCOc2cccc3ccccc23)C1 (stereo not given)	i
COc1ccc(C)cc1S(=O)(=O)N1c2ccccc2CC1C (stereo not given)	1%
CC(C)c1ccc(OCc2cccc(C(=O)NCCN(C)C)c2)cc1	i
O=C(c1cccs1)N1CCN(Cc2ccccn2)CC1	i
Cc1ccc(C(=O)COc2ccc3c(C)cc(=O)oc3c2)cc1C	i
CC(C)OC(=O)c1c(NC(=O)c2cnccn2)sc2c1CCCC2	1%
CC(C)C(=O)Nc1ccc2c(c1)OCCO2	i
O=C(COc1ccc2ccccc2c1Br)NCc1ccncc1	1%
CCOc1ccc(C(=O)NC(C)(C)CC)cc1	i
O=C(COc1cccc2ccccc12)N1CCN(c2ccccn2)CC1	10%
COc1cc(CO)ccc1OCc1ccc(C(=O)O)cc1	i
Cn1c(CN2CCOCC2)nnc1SCC(=O)Nc1ccc2ccccc2c1	i
COc1ccc(CCn2c(-c3ccc([N+](=O)[O-])cc3)nc(=S)c3c2CCCC3)cc1	i
O=C(O)c1ccccc1SC1CC(=O)N(c2cc(Cl)ccc2Cl)C1=O (stereo not given)	i
NS(=O)(=O)c1ccc(CCNC(=O)c2ccc(Cl)s2)cc1	i
C=CCn1c(SCC(=O)NCc2ccc3c(c2)OCO3)nc2sc3c(c2c1=O)CCCCC3	i
Cc1cc(C(F)F)n2nc(C(=O)Nc3cccc(S(=O)(=O)N4CCOCC4)c3)nc2n1	i
Cc1ccc2cccc(OCCOc3ccccc3I)c2n1	i

Some of the entries so far, as comma-separated lines:
compound,Mtb H37Rv
CCOc1ccc(C(=O)NC(C)(C)CC)cc1,i
O=C(COc1cccc2ccccc12)N1CCN(c2ccccn2)CC1,10%
COc1cc(CO)ccc1OCc1ccc(C(=O)O)cc1,i
Cn1c(CN2CCOCC2)nnc1SCC(=O)Nc1ccc2ccccc2c1,i
COc1ccc(CCn2c(-c3ccc([N+](=O)[O-])cc3)nc(=S)c3c2CCCC3)cc1,i
O=C(O)c1ccccc1SC1CC(=O)N(c2cc(Cl)ccc2Cl)C1=O (stereo not given),i
NS(=O)(=O)c1ccc(CCNC(=O)c2ccc(Cl)s2)cc1,i

(list continues)
SMILES	Mtb H37Rv
COc1ccc(OCCCC(=O)Nc2ccccc2F)cc1	i
O=C(NC(=S)Nc1ccc(N2CCN(C(=O)c3cccs3)CC2)c(Cl)c1)c1cc2ccccc2o1	13%
CCc1cccc2c(=O)c(CN3CCC(C)CC3)c(C)[nH]c12	i
O=C(NNC(=O)c1cc(Br)ccc1Cl)Nc1ccc2c(c1)OCO2	i
Cc1ccccc1NC(=O)c1sc2nc[nH]c(=O)c2c1C	i
Cc1ccnc(SC2CC(=O)N(c3ccc(Cl)c(Cl)c3)C2=O)n1 (stereo not given)	i
O=C(CSCc1ccc(Cl)cc1)NCc1ccc(Cl)cc1	2%
COc1ccc(NS(=O)(=O)c2ccc(NS(=O)(=O)c3ccccc3)cc2)c(OC)c1	i
C=CCN(c1ccc(C(=O)Nc2ccccc2C(=O)N2CCOCC2)cc1)S(C)(=O)=O	i
CCc1ccc(NC(=O)c2ccccc2Cl)cc1	i
O=c1c(F)cn(C2CCCO2)c(=O)n1Cc1c(F)cccc1Cl (stereo not given)	i
CN(C)S(=O)(=O)c1ccc2nc(NC(=O)c3ccc4ccccc4n3)sc2c1	i
Cc1cc(C)c(NC(=O)CN(c2ccc(Cl)cc2)S(=O)(=O)c2ccccc2)c(C)c1	i
CCC(=O)Nc1cccc(NC(=O)c2cc(Br)cc(C)c2OC)c1	9%
COc1ccc(N(CC(=O)NCC2CCCO2)S(=O)(=O)c2ccc(F)cc2)cc1 (stereo not given)	i
Cc1ccc(S(=O)(=O)N(C)c2ccccc2C(=O)N2CCOCC2)cc1	i
COc1cc(CN(CCCN(C)C)CCCN(C)C)cc(OC)c1	1%
COc1cccc(C(=O)NC(=S)Nc2ccc(I)cc2C)c1	i
CC(NC(=O)C1CCN(C(=O)c2cccc(Cl)c2)CC1)c1ccccc1 (stereo not given)	i
CCOc1ccc(C(=O)NC(=S)Nc2ccc(I)cn2)cc1	4%
Nc1ccc2oc(C(F)(F)F)cc(=O)c2c1	1%
COc1ccc(N(CC(=O)Nc2ccc(F)c(Cl)c2)S(=O)(=O)c2ccccc2)cc1OC	i
CCN(CC)c1ccc(NC(=S)NC(=O)c2ccc(C)cc2)cc1	i
CC(=O)c1sc2nc(C(C)(C)C)cc(C(F)(F)F)c2c1N	i
Cc1ccc2c3c1C(=O)C(=O)N3C(C)(C)CC2C (stereo not given)	i
CCCCc1cc(=O)oc2c(C)c3oc(C)c(C)c3cc12	1%

These rows are one share of the data; the hit share may differ from the screen's.
